rRNA inh HTS – reduced GFP signal of wild-type E. coli, primary screen, bacterial rRNA inhibitor project, GFP/RFP fluorescence, OD600, single point; E. coli WT GFP vs humanized-ribosome RFP mutants, 24 h; hits give low values; DMSO median 0, no signal -100; GFP signal change (wild-type ribosome), % (no concentration beside the values); hit rate 1.6% among 350,000; AID 720706, 2013;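 active means significant combined selectivity score with lowered wild-type GFP, culture density cut under 30%, mutant RFP and density less affected; inactive means any of these conditions unmet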; further: one replicate is shown; some compounds called inactive have numbers as strong as hits
rRNA inh HTS OD600 – recorded beside rRNA inh HTS, whose call it bears; OD600 change, %; measured here: OD600 growth;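 optical density of the mix in the first replicate; 0 = DMSO median and -100 = no signal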
rRNA inh HTS RFP – also measured in rRNA inh HTS; calls as there; RFP signal change, %; measured here: RFP humanized mutant strains;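 first replicate; 0 = DMSO median and -100 = no signal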
* marks the source's active call; other numbers are inactive results; & = joins results of further samples.

Start of the listing, in advance:
mol | rRNA inh HTS | rRNA inh HTS OD600 | rRNA inh HTS RFP
O=C(Nc1ccccc1)N1CCCCN2[C@@H](CO)[C@H](c3ccc(C#Cc4ccccn4)cc3)[C@@H]2C1 | -4 | 6 | -0.8
C/C=C/c1ccc(C2[C@H]3CNC[C@@H]2N3S(C)(=O)=O)cc1 (stereo partly specified) | -1&11 | 6&19 | -0.9&1.7
Cc1noc(C)c1S(=O)(=O)N(C)C[C@H]1OCCCC[C@H](C)Oc2ccc(NC(=O)NC3CCCCC3)cc2C(=O)N([C@H](C)CO)C[C@@H]1C | 0 | -4 | 1.6
CO[C@H]1CN(C)C(=O)c2cc(NC(=O)C3CCOCC3)ccc2OC[C@@H](C)N(Cc2cccnc2)C[C@@H]1C | 3 | 3 | -1.4
O=C(C[C@@H]1C[C@@H]2c3cc(NC(=O)NC4CCCC4)ccc3O[C@@H]2[C@H](CO)O1)NCc1ccncc1 | 2 | 9 | -3.5
COc1cc(OC)cc(OC2(C)CCN(Cc3ccc(OC(C)C)cc3)C2)c1 (stereo unspecified) | -17 | -34 | -5.6

The listing, previewed entries included:
mol | rRNA inh HTS | rRNA inh HTS OD600 | rRNA inh HTS RFP
O=C(Nc1ccccc1)N1CCCCN2[C@@H](CO)[C@H](c3ccc(C#Cc4ccccn4)cc3)[C@@H]2C1 | -4 | 6 | -0.8
C/C=C/c1ccc(C2[C@H]3CNC[C@@H]2N3S(C)(=O)=O)cc1 (stereo partly specified) | -1&11 | 6&19 | -0.9&1.7
Cc1noc(C)c1S(=O)(=O)N(C)C[C@H]1OCCCC[C@H](C)Oc2ccc(NC(=O)NC3CCCCC3)cc2C(=O)N([C@H](C)CO)C[C@@H]1C | 0 | -4 | 1.6
CO[C@H]1CN(C)C(=O)c2cc(NC(=O)C3CCOCC3)ccc2OC[C@@H](C)N(Cc2cccnc2)C[C@@H]1C | 3 | 3 | -1.4
O=C(C[C@@H]1C[C@@H]2c3cc(NC(=O)NC4CCCC4)ccc3O[C@@H]2[C@H](CO)O1)NCc1ccncc1 | 2 | 9 | -3.5
COc1cc(OC)cc(OC2(C)CCN(Cc3ccc(OC(C)C)cc3)C2)c1 (stereo unspecified) | -17 | -34 | -5.6
C[C@@H]1CN([C@H](C)CO)C(=O)c2cccc(NC(=O)NC3CCCCC3)c2O[C@H]1CN(C)Cc1ccc(-c2ccccc2)cc1 | 4 | 9 | 0.2
C[C@H]1CN([C@@H](C)CO)C(=O)c2cc(NC(=O)Nc3cccc4ccccc34)ccc2O[C@H]1CN(C)S(=O)(=O)c1ccc(F)cc1 | -5 | 2 | -3.7
COc1ccc2c3c([nH]c2c1)[C@H](CO)N(Cc1ccccc1Cl)CC31CCN(C(C)=O)CC1 | 6 | 0 | 2.8
C[C@@H]1CCCCO[C@@H](CN(C)Cc2ccc(Cl)c(Cl)c2)[C@H](C)CN([C@H](C)CO)C(=O)c2cc(NS(=O)(=O)c3ccc(Cl)cc3)ccc2O1 | -2 | 4 | 5.3

(cont.)
mol | rRNA inh HTS | rRNA inh HTS OD600 | rRNA inh HTS RFP
COC(=O)[C@@]12C[C@@H](CC(=O)N3CCN(C(=O)C4CC4)CC3)C(=O)N(Cc3ccccc3)C1=CCC(C)(C)C2 | -2 | -5 | 3.5
CC1(C(=O)NS(=O)(=O)Cc2cccc(Cl)c2)CCN1C(=O)Cc1ccc(Cl)cc1Cl (stereo unspecified) | -25 | -42 | -2.2
O=C(NC1CCCC1)N1CC2(C1)[C@@H](c1ccccc1)[C@@H](CO)N2CC1CC1 | 1 | 0 | -3.9
Cc1ccccc1-c1ccc([C@H]2[C@H](CO)N3CCCCN(S(=O)(=O)Cc4ccccc4)C[C@@H]23)cc1 | -58 | -83 | -12
C[C@H](NC(=O)C[C@@H]1C[C@H]2c3cc(NC(=O)C4CCOCC4)ccc3O[C@H]2[C@H](CO)O1)c1ccccc1 | 3 | -1 | 0.9
COc1ccc(NC(=O)N(C)C[C@@H]2OCCCC[C@@H](C)Oc3ccc(NC(=O)Nc4ccccc4)cc3C(=O)N([C@@H](C)CO)C[C@@H]2C)cc1 | -1 | 1 | 0.6
Nc1ccn([C@@H]2O[C@H](C(=O)N(CCC3=CCCCC3)CC3CC3)[C@@H](O)[C@H]2O)c(=O)n1 | -7 | -18 | -1.4
COc1ccc(S(=O)(=O)N(C)C[C@H]2OCCCC[C@H](C)Oc3ccc(NC(=O)NC4CCCCC4)cc3C(=O)N([C@@H](C)CO)C[C@@H]2C)cc1 | 4 | 3 | 3.2
C[C@@H]1CN([C@@H](C)CO)C(=O)c2cccc(NC(=O)NC3CCCCC3)c2O[C@H]1CN(C)S(C)(=O)=O | -1 | 9 | -1.5
CCC(=O)N1C[C@H](C)[C@H](OC)CN(C)C(=O)c2ccc(NC(=O)C3CCOCC3)cc2OC[C@H]1C | 0 | -4 | -0.3

(list continues)
mol | rRNA inh HTS | rRNA inh HTS OD600 | rRNA inh HTS RFP
COc1ccc(NC(=O)Nc2ccc3c(c2)C(=O)N([C@H](C)CO)C[C@H](C)[C@H](CN(C)C(=O)Cc2ccccc2)OCCCC[C@H](C)O3)cc1 | 1 | 9 | 0.2
OC(c1ccc(Cl)cc1)c1ncc(-c2ccc(Cl)cc2)[nH]1 (stereo unspecified) | -62 | -84 | -21
CCc1nc2c(OCCOc3ccc(F)cc3)cccn2c1N(C)C(=O)C(C)C | -4 | -40 | 8.4
C[C@H](CO)N1C[C@H](C)[C@H](CN(C)S(=O)(=O)c2cccs2)Oc2ccc(NS(=O)(=O)c3cccs3)cc2C1=O | -3 | -8 | -1.7
C[C@@H]1CCCCO[C@@H](CN(C)Cc2ccc(C(F)(F)F)cc2)[C@H](C)CN([C@H](C)CO)C(=O)c2cc(NC(=O)CCC(F)(F)F)ccc2O1 | 4 | -9 | 5.4
CC1C(=O)N(Cc2cn(Cc3ccco3)nn2)CCS(=O)(=O)N1Cc1ccc(-c2cccnc2)cc1 (stereo unspecified) | 3 | 3 | -0.5
N#C[C@@H]1[C@H](c2ccc(C#Cc3cccc(F)c3)cc2)[C@@H](CO)N1C(=O)C1CCCC1 | 1 | 3 | -0.3
CC(C)NC(=O)Nc1ccc2c(c1)C(=O)N([C@H](C)CO)C[C@@H](C)[C@@H](CN(C)S(=O)(=O)c1ccc(F)cc1)O2 | -1 | -3 | -2.4
COCC(=O)NC[C@@H]1N[C@@H](CO)[C@H]1c1ccc(C2=CCCCC2)cc1 | -3 | -5 | -0.3
COCC(=O)N1C[C@H](C)[C@H](OC)CN(C)C(=O)c2cc(NC(=O)c3ccc(F)cc3)ccc2OC[C@H]1C | 2 | 2 | 0.5

Some values from the list.
CC(C)NC(=O)Nc1ccc2c(c1)C(=O)N([C@H](C)CO)C[C@@H](C)[C@@H](CN(C)S(=O)(=O)c1ccc(F)cc1)O2 in rRNA inh HTS OD600 → -3
C[C@@H]1CCCCO[C@@H](CN(C)Cc2ccc(C(F)(F)F)cc2)[C@H](C)CN([C@H](C)CO)C(=O)c2cc(NC(=O)CCC(F)(F)F)ccc2O1 in rRNA inh HTS RFP → 5.4

Following part
mol | rRNA inh HTS | rRNA inh HTS OD600 | rRNA inh HTS RFP
C#Cc1ccc(NC(=O)C2(C)CCN2C(=O)C2(c3ccccc3)CC2)cc1 (stereo unspecified) | -36 | -60 | -8.0
C[C@@H]1CN([C@@H](C)CO)C(=O)c2cccc(NS(=O)(=O)c3cn(C)cn3)c2O[C@H]1CN(C)Cc1ccc2c(c1)OCO2 | -1 | 9 | -2.4
C[C@@H]1CN([C@H](C)CO)C(=O)c2cccc(NC(=O)Nc3ccccc3)c2O[C@@H]1CN(C)S(=O)(=O)c1ccc(F)cc1 | -6 | -10 | 1.2
CC(C)CC#Cc1ccc2c(c1)O[C@H](CN(C)S(=O)(=O)c1ccc(F)cc1)[C@H](C)CN([C@@H](C)CO)S2(=O)=O | -2 | -2 | -4.6
CCCNC(=O)N(C)C[C@H]1Oc2cc(C#CC(C)(C)O)ccc2S(=O)(=O)N([C@H](C)CO)C[C@H]1C | 1 | 13 | 0.1
CNC[C@H]1Oc2c(NS(=O)(=O)c3cn(C)cn3)cccc2C(=O)N([C@@H](C)CO)C[C@@H]1C | 0 | 6 | 0.6
C[C@@H]1CN([C@H](C)CO)C(=O)c2cc(-c3cccc(F)c3)cnc2O[C@H]1CN(C)Cc1cccnc1 | -5 | 6 | -1.0
CCCCCC(=O)OCc1ccc(C2=CC(=O)CC(C)(C)C2=O)cc1 | 3 | 7 | 9.7
O=C1CNC[C@@H]2[C@@H](c3ccc(C#CC4CCCC4)cc3)[C@H](CO)N12 | -3 | -2 | 0.9
C/C=C/c1ccc([C@@H]2[C@@H](CO)N(C(C)=O)[C@@H]2CN(C)C(=O)CN(C)C)cc1 | 7 | 6 | -1.2

Going on with the list:
mol | rRNA inh HTS | rRNA inh HTS OD600 | rRNA inh HTS RFP
COc1ccc2c3c([nH]c2c1)[C@H](CO)N(C(=O)c1ccc(F)cc1)CC31CCN(Cc2cccnc2)CC1 | 4 | 1 | -0.8
CNC[C@H]1Oc2ccc(NC(=O)c3ccncc3)cc2CC(=O)N([C@@H](C)CO)C[C@@H]1C | 1 | -2 | -0.3
CO[C@@H]1CN(C)C(=O)c2cc(NC(=O)Nc3ccccc3F)ccc2OC[C@@H](C)N(Cc2ccccc2C(=O)O)C[C@H]1C | 2 | -2 | 0.8
Cc1noc(C)c1NC(=O)Nc1ccc2c(c1)C(=O)N([C@@H](C)CO)C[C@@H](C)[C@H](CN(C)S(=O)(=O)c1ccccc1)O2 | 4 | 10 | -1.0
C[C@@H]1CN([C@@H](C)CO)C(=O)c2cccc(NS(C)(=O)=O)c2O[C@@H]1CN(C)S(=O)(=O)c1ccc(F)cc1 | 5 | 5 | 1.4
COCC#Cc1cnc2c(c1)C(=O)N([C@@H](C)CO)C[C@H](C)[C@@H](CN(C)C(=O)c1cccc(F)c1)O2 | -3 | 6 | -1.5
COC(=O)c1ccc2nc(-c3ccc(C#N)cc3)c(Cc3ccsc3)n2c1 | 8 | 3 | 7.3
CCCNC(=O)C[C@H]1CC[C@@H]2[C@H](COC[C@H](O)CN2C(=O)Nc2cccc(Cl)c2)O1 | -59 | -80 | -20
COc1ccc(CNC(=O)C[C@@H]2C=C[C@H](NS(=O)(=O)c3cccc(OC)c3)[C@@H](CO)O2)cc1 | -2 | 1 | -0.3
CNC[C@@H]1OCCCC[C@H](C)Oc2ccc(NC(=O)c3ccccc3)cc2C(=O)N([C@H](C)CO)C[C@@H]1C | 4 | 2 | -0.7

Other entries
mol | rRNA inh HTS | rRNA inh HTS OD600 | rRNA inh HTS RFP
O=C(C[C@H]1CC[C@@H]2[C@H](COC[C@@H](O)CN2C(=O)c2ccncc2)O1)Nc1ccc(-c2ccccc2)cc1 | -2 | -16 | 4.2
O=C1CN(S(=O)(=O)c2ccccc2)C[C@@H]2[C@H](c3ccc(C4=CCCC4)cc3)[C@@H](CO)N12 | 7 | -16 | 7.7
COCC#Cc1ccc2c(c1)O[C@@H](CN(C)Cc1cccnc1)[C@H](C)CN([C@H](C)CO)S2(=O)=O | -1 | -10 | -0.2
C[C@@H]1CN([C@@H](C)CO)C(=O)c2cc(C3=CCCC3)cnc2O[C@H]1CN(C)C(=O)Nc1ccc(F)cc1 | -3 | -1 | -2.9
CC(C)C#Cc1ccc2c(c1)O[C@@H](CN(C)C(=O)C1CCCCC1)[C@H](C)CN([C@@H](C)CO)S2(=O)=O | -6 | -12 | 3.2
CCCNC(=O)N1C[C@H](O)COC[C@H]2O[C@H](CC(=O)N3CCC(Cc4ccccc4)CC3)CC[C@@H]21 | 2 | 20 | -2.7
C[C@H]1CN([C@@H](C)CO)C(=O)c2cc(NC(=O)Nc3ccc4c(c3)OCO4)ccc2O[C@@H]1CN(C)Cc1ccc(-c2ccccc2)cc1 | -1 | -6 | 1.2
CC(=O)NC(c1ccccc1)c1nc(-c2csc3ccccc23)cs1 (stereo unspecified) | 6 | 21 | 18
CC(C)CC#Cc1ccc2c(c1)O[C@@H](CN(C)Cc1cccnc1)[C@@H](C)CN([C@@H](C)CO)S2(=O)=O | -31 | -39 | 15
O=C(C[C@@H]1CC[C@H]2[C@@H](COC[C@@H](O)CN2Cc2cccc(C(F)(F)F)c2)O1)NCCc1ccccc1 | -3 | -8 | 4.9

Next compounds:
mol | rRNA inh HTS | rRNA inh HTS OD600 | rRNA inh HTS RFP
C[C@@H]1CN([C@H](C)CO)C(=O)Cc2cc(NS(=O)(=O)c3ccc(F)cc3)ccc2O[C@@H]1CN(C)CC1CC1 | -2 | 2 | -3.0
CNC[C@@H]1Oc2ccc(NC(=O)CCCN(C)C)cc2C(=O)N([C@@H](C)CO)C[C@@H]1C | 0 | 6 | 0.3
C[C@@H]1CN([C@@H](C)CO)C(=O)Cc2cc(NC(=O)Nc3ccccc3)ccc2O[C@H]1CN(C)C(=O)Nc1cccc2ccccc12 | -3 | 0 | -3.2
COc1ccc2c3c(n(C)c2c1)[C@H](CO)N(C(=O)Nc1ccccc1F)CC31CCN(C(=O)c2ccccc2)CC1 | -1 | -2 | 9.7
COc1cccc(CN2CCC2(C)C(=O)Nc2ccc3c(c2)CCN3C(C)=O)c1F (stereo unspecified) | -14 | -19 | 0.4
COc1ccc2c3c([nH]c2c1)[C@H](CO)N(C(=O)C1CCC1)CC31CN(Cc2nccs2)C1 | -1 | 3 | -0.6
Cc1ccc(S(=O)(=O)N2C[C@H]3n4c(=O)ccc(=O)n4C[C@H](OC(=O)Nc4cccs4)[C@@]3(O)C2)cc1 | -20 | -1 | 9.1

Assay outcomes from PubChem.

Not all compounds are listed; the hit share may differ from the screen's.
